VDR inh = Inhibitors of the vitamin D receptor (VDR): qHTS | Vitamin D3 receptor (Homo sapiens), P11473 | VDR-SRC2-3 peptide fluorescence polarization, 2 h | Potency, µM, for inactives: max response, negative = inhibition, most hits filed as inhibitors | 0.93% of 400,000 active | AID 504847, 2011; active = well fitted inhibition curve with a large enough effect; inconclusive = small, poorly fitted or top-dose-only effect, or another doubt; inactive = no such curve, though single readings can be large or run the other way; note: series mostly up to about 120 µM
Target sequence (P11473 whole entry, looked up): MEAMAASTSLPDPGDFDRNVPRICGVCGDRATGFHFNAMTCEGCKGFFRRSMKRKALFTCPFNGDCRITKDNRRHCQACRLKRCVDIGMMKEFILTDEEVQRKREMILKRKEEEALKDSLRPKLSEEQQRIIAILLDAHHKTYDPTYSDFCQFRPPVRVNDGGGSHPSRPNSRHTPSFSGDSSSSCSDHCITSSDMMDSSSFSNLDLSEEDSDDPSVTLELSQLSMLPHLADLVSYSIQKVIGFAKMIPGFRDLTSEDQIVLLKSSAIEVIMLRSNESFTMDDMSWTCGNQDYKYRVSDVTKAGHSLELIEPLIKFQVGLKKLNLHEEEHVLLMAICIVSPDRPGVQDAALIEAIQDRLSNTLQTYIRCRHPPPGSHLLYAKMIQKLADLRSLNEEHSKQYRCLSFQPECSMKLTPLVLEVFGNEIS
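The screen uses fluorescence polarization to detect compounds that interfere with recruitment of the SRC2-3 coactivator peptide to VDR; plates are read after 2 h at room temperature.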
An asterisk follows results filed as active; ? = inconclusive; & = joins results of further samples; [ ] = another dose, or the depositor's remark. % is set by controls: 0 for no effect and ±100 for the full control effect; potency is the fitted concentration of half-maximal effect.

SMILES	VDR inh
CCOc1ccc(-c2nnn(CC(=O)N3CCCC(C)C3)n2)cc1 (centres undefined)	11%
CCOC(=O)c1cc(C)n(CC2CCC(C(=O)Nc3ccc(C)cc3)CC2)c1C (centres undefined)	7%
Cc1nc(N2CCc3ccccc3C2)[nH]c(=O)c1Cc1ccccc1	0%
CCc1ccc2oc(-c3ccc(NC(=O)c4cc5ccccc5o4)cc3)nc2c1	-27%
CC(=O)Nc1ccccc1-c1nc2ccccc2n(CC(=O)Nc2cccc(C(F)(F)F)c2)c1=O	-3%
CN1C(=S)N(c2ccccc2)C(=O)/C1=C/c1ccco1	-3%
Cc1nc2cc(-c3ccccc3)ccc2o1	-12%
O=C(NC1CCCC1)c1cc2nc(-c3ccco3)cc(C(F)(F)F)n2n1	7%
COc1cc(/C=C/C(=O)OCC(=O)N(C)C2CCS(=O)(=O)C2)ccc1OC(F)F (centres undefined)	-16%
Cc1cc(C)c2c(C)c(C(=O)NCc3ccc(S(N)(=O)=O)cc3)oc2c1	31%[activator]
COC(=O)/C(=N/Nc1ccccc1)N1CCCc2ccccc21	0%
Cc1cc(-c2cc(C)c(N)cc2C)c(C)cc1N	1%
CCCNC(=O)COC(=O)c1ccccc1OCc1ccc(Cl)cc1	7%
Cc1ccc(C(=O)NNC(=O)C2CCN(C(=O)OC(C)(C)C)CC2)cc1	-8%
CCc1ccc(NC(=O)c2sc3nc(C)cc(C)c3c2NC(=O)c2ccccc2)cc1	2%
Cc1cccc2cc3c(N)c(C(=O)Nc4ccc(N5CCOCC5)cc4)sc3nc12	20%
O=Cc1cn(CC(=O)N2CCc3ccccc32)c2ccccc12	?
CCOC(=O)c1c(-c2ccc(F)cc2)csc1NC(=O)C1CCCO1 (centres undefined)	?
COc1cc2c(cc1OC)C1=C(C#N)CCC(=O)N1CC2	-1%
O=S(=O)(c1ccc(-n2cnnn2)cc1)N1CCN(c2cccc(C(F)(F)F)c2)CC1	0%
CS(=O)(=O)N1CCC(C(=O)c2cccc(Cl)c2)CC1	11%
Cc1ccc(-c2nn(-c3ccccc3Cl)cc2C(=O)NCC2CCCO2)cc1 (centres undefined)	-12%
Cc1ccc(S(=O)(=O)N2CCN(C(=O)CSc3nc(N)cc(=O)[nH]3)CC2)c(C)c1	4%
CC(C)(C)NC(=O)Cn1c(SCC(=O)NC2CC2)nc2ccccc21	-14%
COc1ccc(Nc2nc(C(F)(F)F)nc(C)c2C#N)cc1	-6%
CC(=O)N1CCN(C(=O)CCN(c2ccccc2)S(=O)(=O)c2ccc(C)cc2)CC1	-15%
O=C(CSc1nnc(C2CC2)n1-c1ccccc1)NCc1ccco1	16%
CC(=O)Nc1nc2ccccc2n1Cc1ccccc1Cl	-4%
COc1ccc(NC(=O)CSc2nc3ccccc3nc2Cc2ccc(C)cc2)cc1Cl	17%
CC(C)CC(NC(=O)C1CCC(C)CC1)C(=O)OCC(=O)c1ccc(Cl)cc1 (centres undefined)	-11%
Cc1ccc2c(c1)sc[n+]2Cc1ccccc1	25µM*
CCOC(=O)c1cccc(NC(=O)CCNS(=O)(=O)c2ccc3c(c2)CCN3C(=O)CC)c1	-1%
S=c1[nH]c(-c2ccccc2)cn1/N=C/c1ccc(Br)cc1	?
Cc1cc(C)cc(NC(=O)Nc2ccc3nc(N4CCN(C)CC4)cc(C)c3c2)c1	13%
Cc1cc(C(=O)CCl)c(C)n1Cc1ccco1	?
COc1ccc2[nH]cc(CCNC(=O)C3CCCNC3=O)c2c1 (centres undefined)	-18%
COc1cccc(CN2C(=O)[C@@H]3Cc4c([nH]c5ccccc45)C(C)(C)N3C2=O)c1	-5%
Cc1ccc(N2C(=O)[C@@H]3[C@H](C2=O)[C@H]2C=C(C(=O)c4ccccc4)C=CN2[C@@H]3C(=O)c2ccc(Cl)cc2)cc1	3%
CCn1c(=O)c2cc(S(=O)(=O)NCc3ccccc3)ccc2n(CC)c1=O	-3%
C=CCSc1nc2ccccc2c(=O)n1C1CCOC(C)(C)C1 (centres undefined)	10%
CCn1c(SCC(=O)N2CCN(c3ccccc3)CC2)nc2c(c1=O)SC(C)C2 (centres undefined)	-10%
O=S(=O)(NCc1ccc(F)cc1)c1ccc2c(c1)OCCO2	11%
O=C(Nc1nc(-c2cccc3ccccc23)cs1)c1cnccn1	-11%
O=C(Cn1nnc(-c2ccccc2)n1)N/N=C/c1cc([N+](=O)[O-])c(Cl)cc1Cl	-5%
Cc1cccn2cc(-c3cc4ccccc4oc3=O)nc12	-3%
COc1ccc(O)c(/C=N/NC(=O)CN2CCS(=O)(=O)CC2)c1	-5%
CCN(CC)C(=O)c1ccc2c(=O)n(Cc3cccc(Br)c3)c(=S)[nH]c2c1	9%
CCOC(=O)c1[nH]c2c(OCC)nc(OCC)nc2c1Br	-14%
O=C(NCc1nc2ccccc2[nH]1)C1=C[C@@H](c2ccc(C(F)(F)F)cc2)C[C@@H](OCCCCO)O1	-10%
CCc1ccc(OCC(=O)O/N=C(\N)c2ccncc2)c(Br)c1	-5%

6 entries out of the list, arranged by formula weight, smallest number first:
SMILES	VDR inh
Cc1cccn2cc(-c3cc4ccccc4oc3=O)nc12	-3%
O=C(Nc1nc(-c2cccc3ccccc23)cs1)c1cnccn1	-11%
COc1ccc(O)c(/C=N/NC(=O)CN2CCS(=O)(=O)CC2)c1	-5%
CCc1ccc(OCC(=O)O/N=C(\N)c2ccncc2)c(Br)c1	-5%
O=C(Cn1nnc(-c2ccccc2)n1)N/N=C/c1cc([N+](=O)[O-])c(Cl)cc1Cl	-5%
CCN(CC)C(=O)c1ccc2c(=O)n(Cc3cccc(Br)c3)c(=S)[nH]c2c1	9%

More entries follow:
SMILES	VDR inh
COC(=O)c1c(C)nc(C)c(C(=O)OC)c1-c1ccsc1	0%
COC(=O)c1sccc1NC(=O)Nc1ccccc1C	-3%
CN(C)c1cccc(C(=O)OCC(=O)N(C)c2ccccc2)c1	-2%
O=C(CN(Cc1ccc(F)cc1)C(=O)CNS(=O)(=O)c1ccc(F)cc1)NCc1ccco1	3%
Cc1cccc(C)c1NC(=O)CNC(=O)CCC(=O)N1CCOCC1	-12%
COc1ccc(CCNC(=O)c2cc3c(=O)n4ccccc4nc3n(CCN3CCOCC3)c2=N)cc1	-14%
Cc1ccc(SCCN2CCN(CC(C)C)CCC2=O)cc1	2%&-11%
O=C(NCCCN1CCN(c2ccc(F)cc2)CC1)C1COc2ccccc2C1 (centres undefined)	-6%
COc1ccc(NC(=O)C(C)N2Cc3ccccc3C2=O)cc1OC (centres undefined)	0%
CCn1cc(/C=C2\SC(=O)N(CC(=O)Nc3ccc4c(c3)OCO4)C2=O)c2ccccc21	-9%
CCOc1ccc(C(=O)Nc2ccc(-n3nncc3-c3ccc(OC)cc3)cc2)cc1	-5%
Cc1ccc(S(=O)(=O)N(C)CCCC(=O)Nc2cc(C)ccc2C)cc1	-7%
OCC1(CCc2ccccc2)CCN(Cc2cccn2-c2cccnc2)CC1	11%
CCCCNC(=O)CSc1nc2ccc(NC(=O)CSc3nnc(N)s3)cc2s1	-1%
CC(=O)NC(Cc1ccc(C(C)C)cc1)C(=O)NC1CCN(c2nc(C)cc(C)n2)CC1 (centres undefined)	-1%
NC(=O)NCC(=O)N1CCC(C(O)(c2ccccc2)c2ccccc2)CC1	2%
COc1ccc(-c2cc(C(F)(F)F)nc(S(=O)(=O)CCCC(=O)Nc3cccnc3Cl)n2)cc1OC	-16%
CSc1ccccc1NC(=O)c1ccc(N2CC3CC(C2)c2cccc(=O)n2C3)c(NC(=O)c2ccncc2)c1 (centres undefined)	-10%
Cc1ccc(S(=O)(=O)/N=C(\c2ccc(Cl)cc2)N2CCOCC2)cc1	20%
COc1ccc(/C=N/n2cncn2)cc1COc1ccc(NC(C)=O)cc1	?

7 entries from above, bar-delimited:
canonical_smiles | VDR inh
CCCCNC(=O)CSc1nc2ccc(NC(=O)CSc3nnc(N)s3)cc2s1 | -1%
Cc1ccc(S(=O)(=O)N(C)CCCC(=O)Nc2cc(C)ccc2C)cc1 | -7%
Cc1ccc(S(=O)(=O)/N=C(\c2ccc(Cl)cc2)N2CCOCC2)cc1 | 20%
CC(=O)NC(Cc1ccc(C(C)C)cc1)C(=O)NC1CCN(c2nc(C)cc(C)n2)CC1 (centres undefined) | -1%
OCC1(CCc2ccccc2)CCN(Cc2cccn2-c2cccnc2)CC1 | 11%
COc1ccc(/C=N/n2cncn2)cc1COc1ccc(NC(C)=O)cc1 | ?
CCOc1ccc(C(=O)Nc2ccc(-n3nncc3-c3ccc(OC)cc3)cc2)cc1 | -5%

Remaining list, next part.
SMILES	VDR inh
C[n+]1ccccc1C1CCCC/C1=N\Nc1ccc([N+](=O)[O-])cc1[N+](=O)[O-] (centres undefined)	-15%
CCCn1nnnc1SCC(=O)N(C(C)C)C(C)C	-3%
CNC(=S)N1CCC(NC(=O)C(Cc2ccc(OC)cc2)NC(C)=O)CC1 (centres undefined)	-9%
O=C1c2ccccc2C(=O)N1Cc1nc2ccccc2c(=O)n1CCCn1ccnc1	-9%
O=C(O)CCC(=O)NNC(=O)c1cccs1	7%
Cn1c(=O)c([N+](=O)[O-])c(NC2CCS(=O)(=O)C2)c2ccccc21 (centres undefined)	-9%
COc1ccc(OC)c(NC(=O)CSc2nc3n[nH]c(C)c3c(=N)n2-c2cccc(Cl)c2C)c1	-1%
COc1ccc(NC(=O)CN(c2ccccc2OC)S(=O)(=O)c2cccs2)cc1Cl	-9%
Cc1csc(CNc2ncnc3ccc(-c4cccnc4)cc23)c1	-14%
CCN(CC(=O)Nc1ccc2c(c1)OCCO2)CC(=O)Nc1ccc(C)c([N+](=O)[O-])c1	11%
Nc1nonc1-n1nnc(C(=O)N/N=C/c2ccc(Cl)cc2)c1-c1ccc2c(c1)OCO2	-4%
C=CCNC(=O)c1ccc(C2SCC(=O)N2Cc2ccco2)cc1 (centres undefined)	1%
COc1ccc(CCNC(=O)C(=O)NCC2OCCN2S(=O)(=O)c2ccc(OC)c(OC)c2)cc1OC (centres undefined)	4%
Cc1cc(C(=O)CSc2nc3ccccc3o2)c(C)n1C1CC1	12%
COc1ccc(CN2COc3ccc4c(-c5ccccc5)cc(=O)oc4c3C2)cc1	11%
C=CCn1c(SCC(=O)NC(=O)c2cccc([N+](=O)[O-])c2)nnc1-c1ccccc1	-9%
COC(=O)c1ccc(CSc2nnc(-c3c[nH]c4ccccc34)n2-c2ccccc2)cc1	17%
Cc1onc(-c2ccccc2Cl)c1C(=O)Nc1nnc(C2CCCCC2)s1	-23%
O=C(Nc1ccccc1)C1CCN(S(=O)(=O)c2cccs2)CC1	-4%
COc1ccc(NC(=O)CN(c2ccc(OC)c(Cl)c2)S(=O)(=O)c2ccccc2)c(OC)c1	-5%
O=C(Nc1cccc(-n2cnnn2)c1)c1ccc(C(F)(F)F)cc1	-12%
CC(=O)N1CCC[C@H]1C(=O)O	0%
CC(=O)N1CCC(C(=O)Nc2ccc(S(=O)(=O)N3CCCC(C)C3)cc2)CC1 (centres undefined)	-9%
CCOC(=O)c1c(C)sc2c1N(C(=O)CN(CC)CC)c1ccccc1S2	13%
Cc1nc2ccc(NC(=O)CSc3ccccc3)cc2s1	0%
COc1ccc(C/C(O)=C(\C#N)c2nc3ccccc3[nH]2)cc1OC	-4%
O=C(CN1C(=O)CSc2ccc(S(=O)(=O)N3CCCCCC3)cc21)NCCc1ccccc1	30%
Cc1ccc(C(C(=O)NC2CCCC2)N(C(=O)CNC(=O)c2cccs2)c2cccnc2)o1 (centres undefined)	-3%
COC(=O)c1cccc2nc3c(C(C)O)cccc3nc12 (centres undefined)	-3%
CCN1C(=O)/C(=C/c2ccc(N3CCCC3)cc2)NC1=S	-28%
CCN(CC(=O)Nc1ccc(NC(C)=O)cc1)C(=O)c1ccccc1SCC(=O)N1CCCC1	0%
O=C(/C(=C/c1ccccc1)n1cncn1)c1ccc(Cl)cc1Cl	20µM*
Cc1ccc(NC(=O)c2cc([N+](=O)[O-])ccc2N2CCCC2)cc1	-3%
O=S(=O)(c1ccccc1)N1CCC[C@@]2(CCN(Cc3nccs3)C2)C1	-2%
O=C(O)CSc1nc2sc3c(c2c(=O)n1-c1ccccc1)CCC3	-11%
CCOC(=O)CCC(NC(=O)CCC(=O)NC(CCC(=O)OCC)C(=O)OCC)C(=O)OCC (centres undefined)	-2%
Cn1c(CN2CCOCC2)nc2cc(NC(=O)c3ccccc3Cl)ccc21	-3%
CCn1nnnc1SCC(=O)NCc1ccco1	-1%
COc1ccc(OCCCC(=O)OCC(=O)NNC(=O)c2ccc([N+](=O)[O-])cc2)cc1	-13%
CCCCC(c1nnnn1CC1CCCO1)N1CCN(c2cc(Cl)ccc2C)CC1 (centres undefined)	10%
CNC(=O)NC(=O)CSc1ncc(C(F)(F)F)cc1Cl	-9%
O=C(C[n+]1ccc(CCSc2ccc(F)cc2)cc1)c1ccccc1	?
CCCCC(CC)CO (centres undefined)	-8%
CCOc1cc2[nH]c(=S)n(Cc3ccc(C)o3)c(=O)c2cc1OCC	4%
O=C(c1ccsc1)N1CCCC(Nc2ccc(F)c(F)c2)C1 (centres undefined)	-2%
Cc1ccc2c(c1)c1c(c(=O)n(-c3ccccc3C)c(=O)n1Cc1ccccc1F)n2C	6%
CCOc1ccc(NC(=O)COC(=O)CNC(=O)c2ccc(-c3ccccc3)cc2)cc1	3%
Clc1ccc(N=c2ssnc2Cl)nc1	5.6µM*
CCN(CC)S(=O)(=O)c1ccc(/C=C/C(=O)OCC(=O)Nc2cccnc2Cl)cc1	4%
Cc1cccc(Oc2ccccc2NC(=O)CN2C(=O)NC3(CCCC3)C2=O)c1	-3%
CS(=O)(=O)c1ccc(Cl)c(NC(=O)COC(=O)c2ccc(S(=O)(=O)N3CCCC3)cc2)c1	-2%
CC1CCCCC12NC(=O)N(CC(=O)N1CCN(C(=O)c3cccs3)CC1)C2=O (centres undefined)	7%

Exported with each value named: part of the list above
> Cc1ccc2c(c1)c1c(c(=O)n(-c3ccccc3C)c(=O)n1Cc1ccccc1F)n2C
  VDR inh = 6%
> Cc1cccc(Oc2ccccc2NC(=O)CN2C(=O)NC3(CCCC3)C2=O)c1
  VDR inh = -3%

Source: PubChem BioAssay

Only part of the results is shown; the hit share may differ from the screen's.
